From PubChem BioAssay
HCMV NEC inh = inhibitors of HCMV UL50-UL53 interaction, biochemical, HTRF | AID 1918969, 2023 | normalized percent inhibition | actives 0.15% (n = 190,000) | HCMV UL50-UL53 nuclear egress complex (human cytomegalovirus) | inhibition, % (concentration not given with the values);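 active = both replicates at 50% or more, plus weaker picks with an unusually low signal ratio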;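 note: stock transfer was 100 nL into about 20 µL; 0% = negative control wells and 100% = wells with untagged competitor protein; inactives centre near -12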
Sa growth 42C = S. aureus growth inhibition at 42 and 30 °C, primary screen, LtaS inhibitor project, RN4220, two temperatures | relative growth, % (test concentration not listed) | OD600, 20 h, 42 °C; stronger effect = lower value | actives 0.53% (n = 170,000) | AID 720641, 2013;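 active = growth at 42 °C up to 50% and 20 or more points under that at 30 °C, or under 10% at both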;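 note: 300 nL library stock went into each well; scaled to the means of positive and negative controls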
GIV Gai3 FP = inhibitors of GIV peptide binding to Galpha-i3, primary screen, biochemical, fluorescence polarization, FITC-GIV GBA peptide, rat Galphai3; AID 1224905, 2016; actives 0.42% (n = 210,000); 90 min; stronger effect = lower value; scaled: aluminum fluoride 0%, vehicle 100%; percent of control (FP), % (concentration not given with the values); Guanine nucleotide-binding protein G(i) subunit alpha-3 (Rattus norvegicus), P08753;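 active = replicate mean at 85% of control or lower, very high polarization wells dropped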;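 note: wells of about 15 µL received 100 nL stock; the first replicate is given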
Target sequence (P08753 whole entry, looked up): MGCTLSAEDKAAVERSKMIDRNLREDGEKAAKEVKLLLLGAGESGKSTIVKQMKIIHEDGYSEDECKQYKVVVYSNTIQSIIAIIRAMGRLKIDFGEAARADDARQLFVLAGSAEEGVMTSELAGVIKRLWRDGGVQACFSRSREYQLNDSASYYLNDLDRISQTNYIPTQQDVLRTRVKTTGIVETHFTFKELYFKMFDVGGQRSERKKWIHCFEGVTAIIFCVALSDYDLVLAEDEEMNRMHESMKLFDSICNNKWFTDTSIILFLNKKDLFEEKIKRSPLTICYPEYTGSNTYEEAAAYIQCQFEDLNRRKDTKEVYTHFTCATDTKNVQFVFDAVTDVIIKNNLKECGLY
Sa growth 42C second temp = second read-out of Sa growth 42C, no call of its own (marks repeat the call); relative growth, %; measured here: growth at 30 °C;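 optical density after 20 h as mean of two plates; 100% = untreated growth and lower means inhibition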
* marks the source's active call; other numbers are inactive results; x = not tested or not shown; & = joins results of further samples.

SMILES | HCMV NEC inh | Sa growth 42C | Sa growth 42C second temp | GIV Gai3 FP
Cc1cnc2c(c1SCC(=O)NCc1ccc(F)cc1)c(=O)n(C)c(=O)n2C | x | 149.2 | 89.7 | 102.7
NNc1ccc(Cl)c(Cl)c1 | -10.3 | 87.4 | 48.3 | x
O=C(N/C(=C/c1ccccc1)S(=O)(=O)c1ccccc1)c1ccccc1 | x | 94.0 | 78.1 | 98.6
O=C(NCc1cccc(F)c1)c1ccc(CN2CC(=O)N3CCCCC3C2=O)cc1 (stereo not drawn) | x | 107.2 | 99.7 | 101.3
Cc1ccc(C2CC(c3cccs3)=NN2S(=O)(=O)c2ccc(C)cc2)cc1 (stereo not drawn) | -20.4 | x | x | 107.8
CC(=O)c1ccc(N2CCN(C(=O)CCC(=O)Nc3ccc4nc(N5CCCCC5)cc(C)c4c3)CC2)cc1 | -7.5 | 95.1 | 87.7 | 103.8
CCCc1nnc2n1NC(c1ccc(CC)cc1)C(C(=O)Nc1cc(C)ccc1C)S2 (stereo not drawn) | -16.4 | x | x | 103.2
COc1cc(-c2noc(CCCn3c(=O)[nH]c4cc5c(cc4c3=O)OCO5)n2)ccc1OC(C)C | 4.6 | x | x | 102.6
CCc1ccc(C(=O)CC2OC(=O)c3c2ccc(OC)c3OC)cc1 (stereo not drawn) | -19.8 | 78.1 | 85.5 | x
Cc1cccc(NC(=O)CN2N=C(c3ccccc3)c3ccccc3S2(=O)=O)c1 | -7.3 | x | x | 102.8
Cc1ccc(S(=O)(=O)N2CCCCC2)cc1C(=O)N1C(C)CCCC1C (stereo not drawn) | -0.8 | 86.1 | 90.6 | x
O=C(O)c1cccnc1SCCS(=O)(=O)c1ccc(C(F)(F)F)cn1 | -4.9 | 109.0 | 86.0 | 97.9
CCN(CC)S(=O)(=O)c1cccc(-c2nnc(SCC(=O)Nc3cc(C)c(Cl)cc3OC)o2)c1 | 0.3 | 99.7 | 106.0 | x
O=C(NCc1cccc(Cl)c1)c1nnc(C(=O)Nc2ccc(F)cc2)s1 | -4.7 | x | x | 100.5
O=C(Nc1ccc2nc(SCC(=O)N3CCCc4ccccc43)sc2c1)c1ccc(Cl)cc1 | -16.2 | 99.1 | 83.0 | 102.4
CC(C)c1ccccc1NC(=O)CN1C(=O)CCC1=O | -9.0 | 93.6 | 83.0 | x
NS(=O)(=O)c1ccc(N=P(N2CCOCC2)(N2CCOCC2)C23CC4CC(CC(C4)C2)C3)cc1 | 2.1 | 91.5 | 103.8 | x
CC(=O)N1N=C(c2c(-c3ccccc3)c3cc(Br)ccc3[nH]c2=O)CC1c1ccc(F)cc1 (stereo not drawn) | -10.6 | x | x | 107.4
Cc1ccc2c(c1)c(N=NC(=O)CCc1ccccc1)c(O)n2C(C)C | -11.0 | 89.1 | 93.7 | x
Cn1nnc(C(O)CN2CCOCC2)n1 (stereo not drawn) | -33.3 | 112.2 | 103.6 | 105.9
COc1ccc(CCNC(=O)CSc2nncn3c2cc2oc(C)cc23)cc1OC | -85.3 | 84.7 | 74.4 | 117.9
COc1ccc(CCNC(=O)CCCc2nnc3n4nc(C)nc4c4ccccc4n23)cc1OC | -10.4 | x | x | 103.3
Nc1nc2c(c(=O)[nH]1)C(c1ccc(OCc3ccccc3Cl)cc1)CC(=O)N2 (stereo not drawn) | 15.9 | x | x | 104.7
Cc1ccc(C)c(NC(=O)Nc2csc3c2CCCC3)c1 | -7.7 | 98.3 | 90.3 | 98.6
c1coc(C2OCC(CN3CCCCC3)O2)c1 (stereo not drawn) | 5.2 | 95.1 | 92.4 | 106.4
O=C(N1CCC(O)(c2cccnc2)CC1)C12CC3CC(CC(C3)C1)C2 | 11.5 | 84.7 | 80.2 | 105.9
Cn1c(=O)c(=O)n(C)c2cc3c(cc21)[nH]c(=O)c(=O)n3Cc1ccccc1 | -0.2 | x | x | 98.3
CC(=O)Nc1ccccc1N1CCCCC1 | 1.8 | 108.2 | 93.5 | 98.0
Cc1ccc(-c2nc3sccn3c2Nc2c(C)cccc2C)cc1 | -24.8 | x | x | 102.3
COc1ccccc1OCC(=O)Nc1nnc2n1CCS2 | x | 112.7 | 90.8 | 102.4

In a second layout: 4 of the compounds above
| Molecule | HCMV NEC inh | Sa growth 42C | Sa growth 42C second temp | GIV Gai3 FP |
| --- | --- | --- | --- | --- |
| COc1ccc(CCNC(=O)CSc2nncn3c2cc2oc(C)cc23)cc1OC | -85.3 | 84.7 | 74.4 | 117.9 |
| COc1ccc(CCNC(=O)CCCc2nnc3n4nc(C)nc4c4ccccc4n23)cc1OC | -10.4 | x | x | 103.3 |
| Nc1nc2c(c(=O)[nH]1)C(c1ccc(OCc3ccccc3Cl)cc1)CC(=O)N2 (stereo not drawn) | 15.9 | x | x | 104.7 |
| Cc1ccc(C)c(NC(=O)Nc2csc3c2CCCC3)c1 | -7.7 | 98.3 | 90.3 | 98.6 |

(more compounds)
SMILES | HCMV NEC inh | Sa growth 42C | Sa growth 42C second temp | GIV Gai3 FP
CCc1cccc(NC(=O)CN2C=NS(=O)(=O)c3ccccc32)c1 | x | 117.3 | 90.6 | 103.9
O=C(CN1c2ccc(F)cc2-c2ccccc2S1(=O)=O)Nc1ccc(F)cc1F | -19.9 | x | x | 103.1
C=CCn1c(=O)c2ccc(C(=O)NC(C)CC)cc2n2c(=O)n(CC(=O)NC3CCCC3)nc12 (stereo not drawn) | -4.1 | x | x | 102.6
CCc1cccc(NC(=O)C2CCCN(c3ncnc4onc(-c5ccc(F)cc5)c34)C2)c1 (stereo not drawn) | x | 93.1 | 87.3 | 106.1
COC(=O)c1ccc(C2C(Oc3ccccc3C)C(=O)N2c2cccc(Cl)c2)cc1 (stereo not drawn) | 24.0 | x | x | 104.8
Fc1ccc2nc3n(c2c1F)CCCCCC3 | -14.6 | 98.2 | 94.8 | x
CCN(CC)S(=O)(=O)c1ccc2oc(C(=O)Nc3cccc(OC)c3)c(C)c2c1 | 2.2 | 100.9 | 89.9 | 108.3
Cc1cc(C(C)(C)C)ccc1NC(=O)CSCC(=O)O | -2.7 | 116.5 | 90.1 | 107.8
CCCn1c(=O)c2[nH]cnc2n(-c2ccccc2C)c1=O | 28.3 | 104.6 | 98.6 | 102.3
NS(=O)(=O)c1ccc(Nc2nc(-c3cccs3)cs2)cc1 | -19.6 | 127.4 | 56.6 | x
COc1ccc(NC(=O)CSc2nnc(NC(=O)Nc3ccccc3)s2)cc1OC | x | 119.3 | 66.1 | 96.4
CCc1cccc(NC(=O)CSc2nc3ccsc3c(=O)n2CC)c1 | -11.2 | 97.4 | 85.0 | 101.2
CCOc1ccc(OCC(=O)Nc2nnc3n2CCS3)cc1 | x | 99.4 | 81.7 | 96.0
O=c1[nH]nc(SCc2nc3ccccc3s2)n1Cc1ccco1 | -23.1 | 87.1 | 78.6 | 97.0
CCCCn1cc(S(=O)(=O)c2ccc(Cl)cc2)c(=O)c2cc(F)c(N3CCCCC3)cc21 | x | 120.6 | 95.0 | 103.3
O=C(COc1ccccc1)N(Cc1cccs1)C1CCS(=O)(=O)C1 (stereo not drawn) | -37.3 | 95.3 | 82.9 | 102.2
CCCCNC(=O)c1cnc2sccn2c1=O | -21.8 | x | x | 105.4
COc1ccc(CCNC(=O)c2cc(=O)[nH]c3ccc(S(=O)(=O)N4CCCCC4C)cc23)cc1OC (stereo not drawn) | x | 97.7 | 101.3 | 106.6
COC(=O)c1ccc2c(=O)n(CCCCCC(=O)N3CCN(c4ccc(Cl)cc4)CC3)c(=O)[nH]c2c1 | x | 109.5 | 101.0 | 105.2
Cc1oc2cc(O)ccc2c(=O)c1-c1ccccn1 | -7.8 | 89.2 | 87.6 | x
CCN1C(=O)c2ccc(C(=O)Nc3cc(C(=O)O)cc(C(=O)O)c3)cc2C1=O | x | 86.7 | 82.3 | 100.6
Cc1csc(-n2[nH]c(C)c(CCC(=O)Nc3c(C)cccc3C)c2=O)n1 | -21.1 | x | x | 101.3
FC(F)(F)c1ccnc(NCc2ccc(Cl)cc2)n1 | x | 97.0 | 100.3 | 101.7
Cc1oc2cc(Br)c(O)c(Br)c2c1-c1ccccc1 | x | 48.7 | 64.5 | 97.9
COc1ccc(NC(=O)c2nn(C)c3c2CSc2ccc(Cl)cc2-3)cc1 | -20.6 | x | x | 103.0
O=C(C1CCCCC1)N1CCN(c2ccc(N3CCCCCC3)nn2)CC1 | -57.5 | 84.2 | 84.7 | 101.8
CC1C(C#N)=C(N)OC2=C1C(=O)CCC2 (stereo not drawn) | -0.8 | 91.2 | 75.8 | 104.0
CC(C)n1cnc(S(=O)(=O)N2CCC(C(=O)N3CCc4ccccc4C3)CC2)c1 | -3.7 | x | x | 111.5
COc1ccc(-c2nc3c4c5c(sc4ncn3n2)C(C)(C)NC(C)(C)C5)cc1OC | -21.4 | x | x | 102.3
Cc1ccc2c(c1)c1c(c(=O)n(-c3cccc(Cl)c3)c(=O)n1CC(=O)NCCC1=CCCCC1)n2C | -1.5 | 88.7 | 86.1 | 97.7

Results in Sa growth 42C and GIV Gai3 FP, for some of the entries so far:
mol,Sa growth 42C,GIV Gai3 FP
CCCCNC(=O)c1cnc2sccn2c1=O,x,105.4
Cc1ccc2c(c1)c1c(c(=O)n(-c3cccc(Cl)c3)c(=O)n1CC(=O)NCCC1=CCCCC1)n2C,88.7,97.7
COc1ccc(CCNC(=O)c2cc(=O)[nH]c3ccc(S(=O)(=O)N4CCCCC4C)cc23)cc1OC (stereo not drawn),97.7,106.6

Going on with the list:
SMILES | HCMV NEC inh | Sa growth 42C | Sa growth 42C second temp | GIV Gai3 FP
COc1ccccc1NC(=O)NCCCn1c(-c2ccncc2)nc2cccnc21 | -12.5 | x | x | 101.4
N#CCCn1c(=O)n(CCC#N)c2ccccc21 | -6.9 | 106.8 | 90.7 | 95.2
O=C(O)c1cc2c(ccc3ccccc32)oc1=O | -70.4 | 150.2 | 80.4 | x
COC(=O)c1cc(NC(=S)NN2CCOCC2)cc(C(=O)OC)c1 | 5.0 | 100.0 | 98.7 | 103.2
CCOC(=O)Cn1c(=O)oc2cc(S(=O)(=O)N(C)c3ccc(OC)cc3OC)ccc21 | -14.3 | 98.4 | 85.5 | 106.7
CN(C)c1ccc(C(CNS(=O)(=O)CCc2ccccc2)N2CCOCC2)cc1 (stereo not drawn) | -8.0 | x | x | 97.1
COc1cccc2c1CCN(Cc1cccc(C)c1)C2=O | -8.5 | 5.1* | 7.2* | 102.8
CC(=O)Nc1ccc(SCC(=O)Nc2cccc3nsnc23)cc1 | -71.2 | 102.7 | 95.8 | x
CCOC(=O)c1c(NC(=O)CSc2nnc3ccccn23)sc(C)c1C | -5.5 | x | x | 100.1
CC(C)(C)c1ccc(-c2nc3cc(NC(=O)c4cccc(Br)c4)ccc3o2)cc1 | -3.2 | 107.1 | 99.9 | 102.0
Cc1cc(=O)[nH]c2c1c(=O)[nH]n2C1CCCC1 | -30.3 | x | x | 102.8
CC(C(=O)O)N1CCCC1=O (stereo not drawn) | -2.5 | 105.8 | 86.9 | 105.1
CCC(=O)Nc1ncnc2sc3c(c12)CCCC3 | -19.8 | 108.5 | 87.5 | x
CN(Cc1ccccc1)C(=O)c1cnc2n(c1=O)CCS2 | -28.8 | 88.2 | 87.1 | 100.0
CC(C)NC(=O)Nc1cccc(Cl)c1 | -5.3 | 113.2 | 109.8 | 100.2
COc1ccc(CCN2C(=O)CCC2(C)C(=O)NC2CCCC2)cc1OC (stereo not drawn) | -8.0 | x | x | 106.7
N#CCSc1nnc(C2COc3ccccc3O2)o1 (stereo not drawn) | -29.7 | 76.8 | 94.9 | x
O=C(CCCn1c(=O)[nH]c2ccsc2c1=O)NCCc1ccccc1Cl | -24.5 | x | x | 106.2
O=C1CCC(c2ccc(Br)cc2)=NN1 | -63.2&-19.6 | 95.8 | 90.4 | 99.2&101.6
CCC(Sc1nc2ccsc2c(=O)n1Cc1ccccn1)C(=O)Nc1cccc(C)c1 (stereo not drawn) | -1.2 | 83.8 | 61.2 | 102.1
CC(Sc1nc2sc3c(c2c(=O)n1C)CCCC3)C(N)=O (stereo not drawn) | -26.3 | 98.3 | 86.2 | x
CCCCN(C)C(=O)c1noc2c1COc1ccccc1-2 | x | 90.3 | 85.9 | 106.2
N#CCSc1nc2cc3c(cc2c(=O)n1CCCC(=O)NCc1ccc2c(c1)OCO2)OCO3 | -19.8 | 101.7 | 81.6 | 101.3
O=c1c(NCc2ccccc2Cl)nccn1-c1ccccc1 | x | 87.0 | 90.2 | 104.6
Fc1cccc(-c2nnn3c2nc(NCCc2ccccc2)c2ccccc23)c1 | -41.8 | 111.6 | 88.0 | 102.9
O=C(COc1ccc(Cl)cc1)Nc1ccc2c(c1)CCCN2C(=O)C1CC1 | -15.2 | 81.2 | 59.5 | 104.8
CCS(=O)(=O)N1CCCc2cc(C(=O)Nc3ccccc3C(=O)OC)ccc21 | 5.6 | x | x | 96.8
